Sa helicase inh: inhibitors of S. aureus replicative helicase, primary screen, biochemical, fluorescence unwinding readout; replicative DNA helicase (DnaC/DnaB), Staphylococcus aureus; purified S. aureus helicase, fluorescence unwinding assay; about half of the hits fall short of the stated cut; inhibition, %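 (tested at about 80 µM)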; 0.05% of 120,000 active;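 active = both duplicates at 50% or more, or one of them with a favoured structure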;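 note: 0% = mean of negative control wells and 100% = mean of positive control wells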
MgrA-DNA mod: S. aureus MgrA activity modulators, primary screen, biochemical, S. aureus Newman, fluorescence polarization; MgrA-DNA binding; inhibition, %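 (about 10 µg/mL by stock and volumes)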; 0.13% of 84,000 active;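 active = above 50% in either of two replicates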;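 note: 0% = protein plus DNA without compound and 100% = DNA alone without protein; higher means less MgrA bound to DNA so lower polarization; one replicate is shown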
Active calls of the source: *; · = no result given; & = joins results of further samples. A portion of the library. The share of hits here may be higher or lower than overall.

#1 O=C(c1ccccc1)c1cn(CCCOc2ccccc2)c2ccccc12
#2 N=C1SCC(=O)N1Cc1ccccc1
#3 Cc1ccc(C(C)C)c(OC(=O)N(C)C)c1CN(C)C
#4 CCCCCCC1C(=O)NC(=S)NC1=O
#5 CC(C)c1ccc(CCN)cc1
#6 CC(C)c1ccc(CO)cc1
#7 CC12NC(=O)CN1CCc1ccccc12 (stereo not given)
#8 CNCC(O)c1ccc(O)cc1 (stereo not given)

Screen / compound no.,1,2,3,4,5,6,7,8
Sa helicase inh,9,10,-23,·,7,-20,11,·
MgrA-DNA mod,-0.4,0.5,·,5.3,·,·,·,1.0

#9 CC1OC(=O)C(C(C)C)NC(=O)C(C(C)C)OC(=O)C(C(C)C)NC(=O)C(C)OC(=O)C(C(C)C)NC(=O)C(C(C)C)OC(=O)C(C(C)C)NC(=O)C(C)OC(=O)C(C(C)C)NC(=O)C(C(C)C)OC(=O)C(C(C)C)NC1=O (stereo not given)
#10 S=P12CN3CN(CN(C3)C1)C2
#11 CCN1C(=O)C(=Cc2cccn2C)C(=O)N(CC)C1=S
#12 Oc1ccc(C(c2ccc(O)cc2)(C(F)(F)F)C(F)(F)F)cc1
#13 O=C(Nc1cc(Cl)c(Cl)cc1Cl)C(Cl)(Cl)Cl
#14 NNCc1ccccc1
#15 CC1(C)CN=C(Nc2ccc(F)c(F)c2)S1
#16 CN1CCCC1c1cccnc1N (stereo not given)

Screen / compound no.,9,10,11,12,13,14,15,16
Sa helicase inh,·,7,6,13,·,·,-25,-6
MgrA-DNA mod,0.5,·,31,-1.5,0.1,0.0,·,·

#17 Cn1cc(C(=O)N2CCOCC2)c2ccccc21
#18 CC1(C)CSC(Nc2ccc(F)cc2)=N1
#19 CCC(=O)N1C(C(=O)O)CSC12CCN(C)CC2 (stereo not given)
#20 CCCC1=C(C(=O)OCC)C2(C(=O)N1)C(C(=O)OC(C)C)=C(N)Oc1ccccc12 (stereo not given)
#21 CCC(CC)C(=O)NC1CCSC1=O (stereo not given)
#22 COc1ccc(N2CCN(Cc3nc4ccccc4[nH]3)CC2)cc1
#23 O[C@H]1[C@H](O)[C@@H](O)CN2CC[C@H](O)[C@H]12
#24 Cc1ccc2c(c1)C1CN(C)CCC1N2C(=O)c1ccccc1 (stereo not given)

Screen / compound no.,17,18,19,20,21,22,23,24
Sa helicase inh,·,·,-20,26,16,-10,·,2
MgrA-DNA mod,-1.6,-2.2,·,-2.2,-1.1,·,-1.2,3.7

#25 Nc1c(Br)cc(Br)cc1Br
#26 CC1CSC(Nc2cccc(C(F)(F)F)c2)=N1 (stereo not given)
#27 N#CC(C#N)=Cc1ccc(-c2ccccc2)o1
#28 COc1ccc(CCNC2(C#N)CCCCC2)cc1OC
#29 COc1ccc2c(c1)c(C(=O)Nc1nccs1)c(C)n2C1CCCCC1
#30 CCN1CCN(c2ccc(N)cc2C)CC1
#31 NC(Cc1ccccc1)c1ccccc1 (stereo not given)
#32 N#CC(C#N)=Cc1cc(Br)cs1

Screen / compound no.,25,26,27,28,29,30,31,32
Sa helicase inh,18,18,-162,·,-3,5,-5,3
MgrA-DNA mod,-4.0,·,15,0.4,·,·,·,3.8

#33 CCC1(CC)OC(c2cccnc2)Nc2ccccc21 (stereo not given)
#34 CN(C)C(=O)Oc1ccnc2cc(Cl)ccc12
#35 Fc1cccc(Cl)c1CN1CCNCC1
#36 S=C=NCc1ccccc1
#37 Cc1ccc(/C=C2/C(=O)C3CCN2CC3)cc1
#38 CCCC(C)c1c(O)n(CC)c(=S)[nH]c1=O (stereo not given)
#39 NCC(=O)c1cccc([N+](=O)[O-])c1
#40 Cn1c(O)c(C(=O)c2ccccc2)c(=O)n(C)c1=O

Screen / compound no.,33,34,35,36,37,38,39,40
Sa helicase inh,17,7,-15,·,·,5,·,-2
MgrA-DNA mod,0.0,0.0,·,-11,1.7,-0.1,-0.7,·

#41 CCc1ccc(C(=O)C23CN4CN(CN(C4)C2)C3)cc1
#42 Cc1cccc(-n2c(CSc3nc4ccccc4[nH]3)nc3ccccc3c2=O)c1C
#43 Fc1ccccc1CNC1CN2CCC1CC2 (stereo not given)
#44 CCOC(=O)C(O)(c1ccc(N(CC)C(=O)OC)cc1)C(F)(F)F (stereo not given)
#45 O=C1NC(=O)N(c2ccccc2)C(=O)/C1=C/c1ccco1
#46 CN[C@@H]1C2CN3CCC(O2)[C@@H]13 (stereo not given in full)
#47 CNC(=O)O/N=C/c1nn(C(=O)C(C)(C)C)cc1Br
#48 CCNc1ccc(P(=S)(N(C)C)N(C)C)cc1

Screen / compound no.,41,42,43,44,45,46,47,48
Sa helicase inh,-4,0,23,24,5,-2,-16,1
MgrA-DNA mod,·,-3.2,·,·,17,·,·,·

#49 N#CCCN1CCCC2(CCCC2)C1
#50 Cc1oc(-c2cccs2)nc1CN1C(=O)CN=C(c2ccccc2)c2ccccc21
#51 O=S1(=O)CC2(N3CCOCC3)CCCCCCC21 (stereo not given)
#52 CN(C)C(=O)Oc1cccc(NC(=O)c2cc(Cl)cc(Cl)c2)c1
#53 CCOC(=O)[C@]1(C#N)[C@@H]2C=CC(C(N)=O)=CN2[C@@H](C(N)=O)[C@@H]1c1ccc(Cl)cc1
#54 C=CCOC(=O)C1=C(C)NC(=O)C12C(C(=O)OC)=C(N)Oc1ccccc12 (stereo not given)
#55 COc1cccc([C@@H]2CCN(CC(=O)Nc3cc(Cl)ccc3OC)C[C@H]2O)c1
#56 N#C/C(=C\c1ccccc1)C(=O)O

Screen / compound no.,49,50,51,52,53,54,55,56
Sa helicase inh,13,4,12,·,5,18,2,24
MgrA-DNA mod,-1.1,0.1,-0.8,-0.8,0.6,0.6,-0.4,·

#57 CC1(C)CC(=O)C(C=NCCN2CCN(C(=O)Cc3ccccc3)CC2)=C(O)C1
#58 CN(C(=O)c1ccco1)c1ccc(Cl)cc1C(=O)c1ccccc1
#59 CC12CC(c3ccccc3O1)C(C(=O)O)C(=O)N2CCC1=CCCCC1 (stereo not given)
#60 COc1ccc(C=C2C(=O)N(C)C(=O)N(C)C2=O)cc1
#61 CC(=O)OC1(Cc2ccccc2)CN2CCC1c1ccccc12 (stereo not given)
#62 O=C(O)C(Cc1cnc[nH]1)N1C(=O)c2ccccc2C1=O (stereo not given)
#63 COc1ccc(-n2c(Sc3ncccn3)nc3ccccc3c2=O)cc1OC
#64 O=C(c1ccc(CNS(=O)(=O)c2ccccc2)cc1)N1CCC2(CC1)OCCO2

Screen / compound no.,57,58,59,60,61,62,63,64
Sa helicase inh,-27,·,9,0,8,1,0,-10
MgrA-DNA mod,·,-1.1,5.5,2.3,-1.6,0.4,·,·

#65 CCN1C(=O)C(=C2C=C(C)OC(C)=C2)C(=O)N(CC)C1=S
#66 Clc1ccc(CSC(Cn2ccnc2)c2ccc(Cl)cc2Cl)cc1 (stereo not given)
#67 C/C(CC(c1ccccc1)c1c(O)c2ccccc2oc1=O)=N/O (stereo not given)
#68 CCC1CN2CCC34c5ccccc5NC3C(C)C1CC24 (stereo not given)
#69 O=C(c1cccc(N2CCCC2=O)c1)N1CCC2(CC1)OCCO2
#70 CCN1CCN(Cc2ccoc2)CC1
#71 c1cc2c(cc1C1NN=C3C4CCN(CC4)C31)OCO2 (stereo not given)
#72 CN1CCN(c2ccc(C(F)(F)F)cc2NO)CC1

Screen / compound no.,65,66,67,68,69,70,71,72
Sa helicase inh,-5,·,·,11,-28,·,·,·
MgrA-DNA mod,·,3.2&0.1,2.4,·,·,-1.8,1.6,-0.1

#73 Cc1nn(-c2ccccc2)c2c1P(=S)(N1CCOCC1)OC(c1ccccc1)=N2 (stereo not given)
#74 CC(C)(NO)C(=O)c1cc(C(C)(C)C)c(O)c(C(C)(C)C)c1
#75 CCN1CCN(c2ccc(NC(=O)C(C)C)cc2)CC1
#76 CC1=CC(=O)C2=C(C)C[C@H](O)[C@@H]3[C@H](OC(=O)[C@H]3C)[C@@H]12
#77 S=c1n(CN2CC=C(c3ccccc3)CC2)nc2sc3ccccc3n12
#78 CN(C)c1ccc(CN2CCN(Cc3ccccc3)CC2)cc1
#79 C/C(=C\c1ccc2c(c1)OCO2)[N+](=O)[O-]
#80 CN(C)/N=C/c1ccc(C2(O)C(=O)NC(=O)NC2=O)o1

Screen / compound no.,73,74,75,76,77,78,79,80
Sa helicase inh,12,13,2,·,10,6,·,-23
MgrA-DNA mod,·,-2.2,-4.0,0.2,·,-5.8,0.6,·

#81 CCc1c(CCN)csc1C
#82 OC1(c2cccc(F)c2)CC2CCC(C1)N2 (stereo not given)
#83 c1ccc(C2=NP(N3CCOCC3)(N3CCOCC3)=NC(N3CCOCC3)=N2)cc1
#84 CCC(=O)c1c(O)n(C)c(=O)n(C)c1=O
#85 CCN1CCC2(CC1)NC(=O)c1ccccc1O2
#86 CN1C(=O)c2ccccc2C(C(=O)N2CCC3(CC2)OCCO3)C1c1cccs1 (stereo not given)
#87 c1ccc2c(CN3CCCCC3)c[nH]c2c1
#88 Cc1ccccc1-c1nc(CS(=O)CC(=O)N2CCC3(CC2)OCCO3)c(C)o1 (stereo not given)

Screen / compound no.,81,82,83,84,85,86,87,88
Sa helicase inh,32,-25,-18,9,·,19,3,18
MgrA-DNA mod,·,·,·,-0.9,0.0,·,0.2,0.5

#89 COC(=O)C1CNCCN1c1ccccc1 (stereo not given)
#90 Cc1nn(CC(C)C)c(Cl)c1C(=O)NC1CC1
#91 C[C@]12CC[C@H](O)C[C@H]1CC[C@@H]1[C@@H]2CC[C@]2(C)[C@@H](C3=CC(=O)OC3)CC[C@]12O
#92 CCN1C(=O)/C(=C/C=C/c2ccco2)C(=O)NC1=S
#93 Cc1[nH]c2c(C)cccc2c1CCN
#94 COc1ccc(NC(=O)c2cn(CCC#N)nc2-c2ccc(OC)cc2)cc1
#95 Cc1nnc(SCC(=O)Nc2ccc(C#N)c(Cl)c2)n1N
#96 c1ccc2c(c1)CNC(c1ccc3c(c1)OCO3)c1cccn1-2 (stereo not given)

Screen / compound no.,89,90,91,92,93,94,95,96
Sa helicase inh,3,9,·,-14,-2,10,-7,10
MgrA-DNA mod,-3.2,·,-7.9,67*,2.0,-6.4,·,-1.4

#97 CCN(CC)C(=O)c1ccc(NC(=O)Nc2ccccc2OC)cc1
#98 O=[N+]([O-])O[C@H]1CO[C@H]2[C@@H]1OC[C@H]2O[N+](=O)[O-]
#99 OC1C2(c3ccccc3)CN3CN(C2)CC1(c1ccccc1)C3 (stereo not given)
#100 CCOc1cc2c(cc1OCC)-n1cccc1C(c1ccccc1O)NC2 (stereo not given)
#101 OC[C@H]1O[C@@H](Oc2c[nH]c3ccc(Br)c(Cl)c23)[C@H](O)[C@@H](O)[C@H]1O
#102 CN=C(Cl)c1cccs1
#103 C=C[C@@H]1CN2CCC1C[C@@H]2[C@H](O)c1ccnc2ccccc12 (stereo not given in full)
#104 ClC1C(Cl)C(Cl)C(Cl)C(Cl)C1Cl (stereo not given)

Screen / compound no.,97,98,99,100,101,102,103,104
Sa helicase inh,-2,·,-6,-5,·,-11,·,·
MgrA-DNA mod,·,0.7&0.1,·,·,-0.8,·,0.1,0.0

#105 O=C(O)CCC(=O)OC1N=C(c2ccccc2Cl)c2cc(Br)ccc2NC1=O (stereo not given)
#106 CCN1C(=O)C2(Cc3ccccc3N3CCCC32)C(=O)N(CC)C1=S (stereo not given)
#107 O=C(O)CCC1C(=O)NC(=O)NC1=O
#108 Cn1c(N)c(N2CCNCC2)c(=O)n(C)c1=O
#109 c1ccc2c(c1)Oc1ccccc1O2
#110 COc1ccc(C(=O)OC2CC3CCC(C2)N3)cc1OC (stereo not given)

Screen / compound no.,105,106,107,108,109,110
Sa helicase inh,10,10,4,9,10,2
MgrA-DNA mod,·,·,-5.2,·,·,·

Bioassay records (PubChem BioAssay)
